HPGD inh: HPGD (human) dehydrogenase inhibition | purified HPGD, NADH fluorescence kinetic, PGE2 substrate | Potency, µM, inactives show at the top dose activity change, negative = inhibition, hits mostly inhibitors | actives 4.3% (n = 150,000); active = well fitted inhibition curve with a large enough effect (not every such curve was filed as active); inconclusive = small, poorly fitted or top-dose-only effect, or another doubt; inactive = no such curve, though single readings can be large or run the other way;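 note: top concentration of the series not given in the record; plate controls included wells without enzyme; inactives centre near -10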
Target sequence (P15428 whole entry, looked up): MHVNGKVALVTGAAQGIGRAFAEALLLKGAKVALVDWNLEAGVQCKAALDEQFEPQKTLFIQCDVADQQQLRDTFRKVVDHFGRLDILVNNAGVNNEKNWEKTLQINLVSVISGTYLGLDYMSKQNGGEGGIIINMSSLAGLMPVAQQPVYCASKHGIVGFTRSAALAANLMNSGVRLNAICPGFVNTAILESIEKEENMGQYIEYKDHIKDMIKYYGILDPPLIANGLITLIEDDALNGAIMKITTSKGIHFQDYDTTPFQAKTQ
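NADH formation kinetics: reaction with 30 uM PGE2 and 1 mM NAD+ (final), 20 nM enzyme, Tris-HCl pH 8 with Tween 20, after 15 min compound preincubation at room temperature. Fluorescence change, last versus first of five reads.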
* marks the source's active call; other numbers are inactive results; ? = inconclusive; & = joins results of further samples. % is set by controls: 0 for no effect and ±100 for the full control effect; potency is the fitted concentration of half-maximal effect.

SMILES	HPGD inh
COC(=O)[C@@]1(Cc2ccccc2)[C@H]2c3cc(C(=O)N4CCCC4)[nH]c3C[C@H]2CN1C(=O)c1ccccc1	-6.9%
O=C(Cc1cccc2ccccc12)NCCC1=CCCCC1	?
NS(=O)(=O)c1ccc(N2N=C(c3ccccc3)CC2c2cccc(F)c2)cc1 (stereo unspecified)	?
CCCSc1nnc(-c2cnn(-c3ccccc3)c2-n2cccc2)n1C	17.8µM*
COc1ccc(Nc2cccccc2=O)cc1	-8.4%
O=C(N/N=C/c1ccc(Cl)cc1Cl)C1CCN(c2ncc(C(F)(F)F)cc2Cl)CC1	-22.4%
O=c1oc2ccccc2c(O)c1/C=N/c1nc(-c2ccc(O)c(O)c2)cs1	-24.2%
CCC(CC)NC(=O)c1cc(OC)c(OC)c(OC)c1	-7.5%
COc1cccc2c(=O)n(CC(=O)N3CCCc4ccccc43)ccc12	-10.4%
C[C@H]([C@@H](N)C(=O)N[C@@H](C(=O)O)[C@@H]1O[C@H](n2ccc(=O)[nH]c2=O)[C@@H](O)[C@H]1O)[C@@H](O)c1ccc(O)cn1	0.0%
Cc1onc(-c2ccccc2)c1C(=O)NC(=S)Nc1sc2c(c1C#N)CCCC2	?
COc1ccc(CCN2CNc3c(c(=O)n(C)c(=O)n3C)C2)cc1	-4.8%
O=C(COC(=O)c1cccc(S(=O)(=O)NCc2ccccc2)c1)c1ccccc1	20µM*
CCOc1cc(/C=N/NC(=O)COc2ccccc2C)ccc1OC(=O)c1cccs1	-18.4%
O=C(NCc1ccco1)c1cc([N+](=O)[O-])cc([N+](=O)[O-])c1	-7.7%

6 entries picked at random from those above, as already listed:
SMILES	HPGD inh
C[C@H]([C@@H](N)C(=O)N[C@@H](C(=O)O)[C@@H]1O[C@H](n2ccc(=O)[nH]c2=O)[C@@H](O)[C@H]1O)[C@@H](O)c1ccc(O)cn1	0.0%
NS(=O)(=O)c1ccc(N2N=C(c3ccccc3)CC2c2cccc(F)c2)cc1 (stereo unspecified)	?
O=C(N/N=C/c1ccc(Cl)cc1Cl)C1CCN(c2ncc(C(F)(F)F)cc2Cl)CC1	-22.4%
CCCSc1nnc(-c2cnn(-c3ccccc3)c2-n2cccc2)n1C	17.8µM*
COc1cccc2c(=O)n(CC(=O)N3CCCc4ccccc43)ccc12	-10.4%
COc1ccc(Nc2cccccc2=O)cc1	-8.4%

Next part
SMILES	HPGD inh
O=C(Nc1cccc2ccccc12)N1CCN(Cc2ccc3c(c2)OCO3)CC1	-1.2%
CCOc1ccccc1NC(=O)CSc1nnc(-c2ccco2)o1	-7.7%
COc1cc(C(=O)OCC(=O)Nc2cc(C)on2)ccc1OCc1ccccc1Cl	-0.1%
S=C(Cc1cccnc1)N1CCOCC1	22.4µM*
COc1cccc(C2C(C(=O)Nc3ccccc3)=C(C)N=c3s/c(=C/c4ccc(OCC(=O)O)cc4)c(=O)n32)c1 (stereo unspecified)	-23.3%
O=C1CCc2cc(S(=O)(=O)N3CCCC3C(=O)N3CCN(c4ccccc4)CC3)ccc2N1 (stereo unspecified)	-3.1%
CC(=O)Nc1nnc(-c2ccc(Cl)s2)o1	?
COC(=O)c1ccccc1OCC(=O)N1CCN(c2ccc(F)cc2)CC1	3.2%
O=C(CSc1cccc(C(F)(F)F)c1)Nc1ccc(Cl)cc1Cl	-8.8%
O=C(O)CCCCCNC(=O)CCn1cnc2ccccc2c1=O	2.1%
COc1ccc(NC(=O)CSc2nnc(Cc3cccn3C)n2-c2ccc(C)cc2)cc1OC	-12.2%
C/C(=N\NC(=O)c1ccc(Cl)c(S(=O)(=O)Nc2ccccc2Cl)c1)c1ccncc1	-0.6%
COc1ccc(-c2nn(-c3ccccc3)cc2C2CC(c3cccs3)=NN2C(=O)CCCC(=O)O)cc1 (stereo unspecified)	?
CC(=O)N1CCN(CCN(CC2C(C)C=C(C)CC2C)C(C)=O)CC1 (stereo unspecified)	-4.4%
O=C(Nc1cc(=O)c2ccccc2o1)N1CCCCC1	?
CC1(OC(=O)c2ccco2)C(=O)C2=COC(C3CC3)=CC2=C(Br)C1=O (stereo unspecified)	-7.5%
O=C(c1ccco1)c1nnn(Cc2ccccc2)c1-c1ccccc1	-11.4%
CC1CN(C(=O)N(C)C)CCN1C(=O)N(C)C (stereo unspecified)	-4.2%
N#Cc1ccc(CN2CC3(CCN(C(=O)c4ccncc4)CC3)C2)cc1	-2.6%
CCOC(=O)c1cnc(SC)nc1Nc1cccc(F)c1	-9.4%
O=[N+]([O-])c1cnc(N2CCCCC2)c([N+](=O)[O-])c1	-23.6%
CC1Cc2ccccc2N1C(=O)CSc1nnc(CNc2ccccc2)o1 (stereo unspecified)	-3.6%
CC1CN(C(=O)c2ccc(COCC(F)(F)F)o2)CC(C)O1 (stereo unspecified)	-7.4%
Cc1cccc(OC(=O)Cn2c(C(F)(F)F)nc3ccccc32)c1	-14.7%
CCCN(CCC)CCCNC(=O)c1cc2c(=O)n(C)c3ccccc3c2n1C	?
Cc1c(N)cccc1N	-3.1%
C=CCn1c(SCC#N)nc2c(c1=O)C(C)(C)Cc1ccccc1-2	-1.1%
CC(=O)[C@]1(O)CCC2C3C=C(Cl)C4=CC(=O)C5CC5[C@@]4(C)C3CC[C@]21C (stereo partly specified)	-12.9%
CC1(O)N(Cc2ccccc2)C(=O)OC12CCCCC2 (stereo unspecified)	0.5%
CCCCn1c(CN(C)Cc2ccccc2)nc2c1c(=O)n(C)c(=O)n2C	-8.2%

Ordered by value in HPGD inh (falling): some entries from above
mol	HPGD inh
CC1(OC(=O)c2ccco2)C(=O)C2=COC(C3CC3)=CC2=C(Br)C1=O (stereo unspecified)	-7.5%
Cc1cccc(OC(=O)Cn2c(C(F)(F)F)nc3ccccc32)c1	-14.7%
O=[N+]([O-])c1cnc(N2CCCCC2)c([N+](=O)[O-])c1	-23.6%

HPGD inh: entries above that show a hit.
SMILES	HPGD inh
CCCSc1nnc(-c2cnn(-c3ccccc3)c2-n2cccc2)n1C	17.8µM*
O=C(COC(=O)c1cccc(S(=O)(=O)NCc2ccccc2)c1)c1ccccc1	20µM*
S=C(Cc1cccnc1)N1CCOCC1	22.4µM*

Carrying on.
SMILES	HPGD inh
O=C(COC(=O)C1CCC(=O)N1)Nc1cc(Cl)ccc1Cl (stereo unspecified)	0.9%
COCCCN1C(=O)c2ccc(C(=O)NCc3ccco3)cc2C1=O	-16.6%
Cc1ccc2cc(CCNC(=O)C(C)C)c(=O)[nH]c2c1C	-16.2%
COC(=O)c1ccc(-c2sc3nc(N4CCOCC4)c4c(c3c2N)CC(C)(C)OC4)o1	-10.4%
O=C(Cc1ccc(Br)cc1)Nc1ccccc1Sc1ccccc1	-23.0%
CC1(C)Cc2c(c(-c3ccco3)[nH]c(=O)c2C#N)CO1	?
O=C(CNC(=O)c1cccs1)NCCN1CCC(Cc2ccccc2)CC1	0.0%
O=C(NCC1CCCO1)c1ccc2c(=O)n(CC3CCCO3)c(=S)[nH]c2c1 (stereo unspecified)	-16.1%
OCC1OC(n2nnc3ccccc32)C(O)C(O)C1O (stereo unspecified)	-7.9%
CCOC(=O)c1cccc(NC(=O)Cn2c(CC(=O)N3CCCC3)nc3ccccc32)c1	-0.1%
CC1(c2ccc(Cl)cc2)NC(=O)N(CC(=O)N2CCCC2)C1=O (stereo unspecified)	-10.7%
CCOC(=O)CC(=O)CSc1ccc2nnc(-c3cccc(F)c3)n2n1	?
COC(=O)C(C(=O)OC)C1c2ccccc2C=C(C2CC2)N1C(=O)OC (stereo unspecified)	-4.4%&-11.0%
O=C(Nc1nccs1)C1CC(=O)N(c2ccccc2Cl)C1 (stereo unspecified)	-9.2%
C=CCc1cc(Cl)ccc1OCCN(C)C	-7.8%
COC(=O)c1sccc1NC(=S)Nc1ccc(F)cc1	-9.2%
CCCCNC(=O)Cn1c2c(c(-c3ccccc3Cl)cc1=O)CCC2	-28.8%
Cc1ccc(-c2cc(N)n(-c3ccc(C)cc3)n2)cc1	-8.2%
CCN(CC)CCNC(=O)Cn1nc(-c2ccc(C)cc2)ccc1=O	-12.9%
O=C1CC(Cc2ccc(Cl)cc2)C(=O)N1c1ccccn1 (stereo unspecified)	-6.6%
Cc1cccc(C(=O)Nc2cc(C)ccc2NC(=O)COc2ccccc2)c1	-7.8%
CCCC1OC23CCCCC2C(C#N)(C(=N)O3)C1(C#N)C#N (stereo unspecified)	?
Cn1c(=O)[nH]c(=O)c2c1nc(SCCN1CCCCC1)n2CCCc1ccccc1	28.2µM*
COc1ccc(CCN2C(=O)CC(NNC(=O)c3cccc(O)c3)C2=O)cc1 (stereo unspecified)	-17.5%
CCn1c2ccccc2c2cc(NC(=O)COC(=O)c3ccccc3Br)ccc21	-15.8%
CC1CCCCN1C(=O)c1ccc(S(=O)(=O)N2CCCCC2C)cc1 (stereo unspecified)	-22.4%
CCOC(=O)c1cnn(-c2cc(Oc3ccccc3)ncn2)c1N	-11.5%
CCc1cccc(NC(=O)Cn2c(-c3ccccc3)cc(C(C)=O)c2C)c1	0.5%
CCOC(=O)c1ccc(N2C(=O)C3CC=CCC3C2=O)cc1 (stereo unspecified)	-7.9%
COC(=O)c1sccc1NC(=O)c1cc(-c2cc(C)ccc2C)nc2ccccc12	-17.5%
Cc1cc(C)c2c(-n3cccc3)c(NC(=O)OC(C)C)sc2n1	-12.7%
CC(C)(C)n1nc2c(c1NC(=O)c1ccc(Br)cc1)CS(=O)C2 (stereo unspecified)	-16.9%
COC(=O)c1ccc(C(NC(=O)OCc2ccccc2)/C(F)=C/[C@@H](C)C(=O)NCc2cc(C)on2)cc1 (stereo partly specified)	-9.5%
Cn1c(-c2sc(=S)n(-c3ccccc3)c2N)nc2ccccc21	-12.9%
Cn1c(CCN2CCCCCC2)nc2cc(NC(=O)Nc3ccccc3)ccc21	-21.9%
O=C(NNS(=O)(=O)c1ccccc1)c1ccc(S(=O)(=O)N2CCCCC2)cc1	-6.9%
Cc1ccc(Nc2ccc(C(=O)NCCc3ccccc3)cn2)cc1	-29.7%
CC(C)COC(=O)c1ccc(NC(=O)C2C3CCC(C3)C2C(=O)O)cc1 (stereo unspecified)	-14.5%
COc1ccc(C(=O)c2sc(Nc3ccccc3)c(C(=O)Nc3ccc(OC)c(OC)c3)c2N)cc1	-14.3%
Cc1cc(NC(=O)CCC(=O)N(c2ccccc2)C(C(=O)NC2CCCCC2)c2cccs2)no1 (stereo unspecified)	0.2%
COc1ccc(-n2ncc3c(NCCCn4ccnc4)ncnc32)cc1	-9.1%
CON/C=C(\C=Nc1ccc(Cl)cc1)c1ncc(C(F)(F)F)cc1Cl	-24.6%
O=C(NCCO)c1scc2c1OCCO2	-7.4%
Cc1nn(C)cc1/C=N/NC(=O)C(C)(C)Oc1ccc(Cl)cc1	0.3%
COC(=O)CCCC1=CC2=C(c3ccccc3)C(=O)C(C)(OC(=O)C3CCCC3)C(=O)C2=CN1c1ccccc1 (stereo unspecified)	-5.6%
Cc1ccc(S(=O)(=O)COCCN2CCN(S(=O)(=O)c3ccc(C)cc3)CCC2=O)cc1	-6.4%
Cc1onc(-c2c(Cl)cccc2Cl)c1C(=O)NC1C(=O)N2C1SC(C)(C)C2C(=O)O (stereo unspecified)	?
CCOc1ccccc1C1C(C#N)=C(N)SC(N)=C1C#N	-16.6%
O=C(COC(=O)c1cnc(Cl)c(Cl)c1)Nc1ccc(S(=O)(=O)N2CCCC2)cc1	-3.1%
CC1(C)CC(=O)C2=C(C1)NCN(CCCN1CCOCC1)C2	-6.0%
COc1ccc2cc3c(N)nn(C(=O)c4ccccc4[N+](=O)[O-])c3nc2c1	-11.3%
CC(C)c1c(O)c(-c2cc3c(c(C(C)C)c2O)CCC2C(C)(C)CCC[C@@]32C)cc2c1CCC1C(C)(C)CCC[C@@]21C (stereo partly specified)	-5.1%
COc1ccc(/C=C/C(=O)N(C(C)C)C(C)C)cc1Br	-3.4%
O=C(Nc1ccc2c(c1)OCCO2)c1ccc(Cl)c([N+](=O)[O-])c1	-10.2%
Cc1c(C(=O)OCC(=O)Nc2ccccc2OC(F)F)cccc1[N+](=O)[O-]	-13.4%
O=C(O)c1cnc2ccccc2n1	?
Cc1cc(C(=O)Nc2ccccc2)c(C)o1	?
Nc1nonc1C(=O)NCCNS(=O)(=O)c1ccc(F)cc1	-7.6%
C#CC[N+](C)(C)CCCCCCCC	0.7%
COc1ccc(C(=O)N2c3ccccc3CC2C)cc1OC (stereo unspecified)	-2.1%
(more compounds)
SMILES	HPGD inh
Cc1sc(NC(=O)CSc2ncn(-c3ccccc3)n2)nc1-c1ccccc1	-16.1%
COc1ccc(N2CCN(C(CNS(=O)(=O)c3ccc4c(c3)OCCO4)c3ccco3)CC2)cc1 (stereo unspecified)	-22.3%
Cc1c(C(=O)Nc2ccc(Cl)cc2)c2ccccn2c1C(=O)c1ccc(F)cc1	-4.0%
CC(C)(C)c1ccc(CN(Cc2ccco2)Cc2nnnn2C2CCCC2)cc1	-18.4%
CCn1c(CC(=O)Nc2ccc(C)cc2)nnc1SCC(=O)NCCc1ccccc1	?
Cc1ccc(NC(=O)ON=C2CCCC2)cc1	-10.0%
NC1=NC(=O)S/C1=C\c1ccc(O)cc1	-21.4%
NC(=O)C(c1ccc(Cl)cc1)c1ccc(Sc2ccc(Cl)cc2)nn1 (stereo unspecified)	-7.7%
Cc1ccc(S(=O)(=O)Oc2ccccc2/C=N/NC(N)=S)cc1	1.7%
Cn1c(=O)n(C)c2cc([N+](=O)[O-])c(N3CCN(S(=O)(=O)c4ccc(C(C)(C)C)cc4)CC3)cc21	-11.2%
Cc1c(N2C(=O)CS/C2=N\N=C\c2ccc(Br)cc2)c(=O)n(-c2ccccc2)n1C	-7.2%
CCOc1ccc(NC(=O)CSc2nc(C)c3c(c2C#N)CCCC3)cc1	-7.0%
COc1ccc(CC(=O)NCc2nnc(SCc3ccc(C)cc3)n2C)cc1	-11.7%
COc1cc(/C=N/NC(=O)Cn2nc([N+](=O)[O-])cc2C)cc(Br)c1OCc1ccccc1	-8.0%
Cc1ccc(-n2nc3ccc(NC(=S)NC(=O)/C=C/c4ccco4)cc3n2)cc1	-18.4%

Source: PubChem BioAssay (National Center for Advancing Translational Sciences (NCATS))

Some of the compounds tested; count on the stated rates, not on these rows.
